# Insulin prom inh = inhibitors of insulin promoter-driven GFP, primary screen, imaging, TRM-6 cells (human fetal islet line), eGFP reporter, cell count; reporter expression induced with tamoxifen; inhibition, % at 2 µM; 130,000 compounds, 0.9% hits; AID 1273, 2008;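 active = inhibition above the mean plus 3 SD, with well images judged a real hit on visual review, cut at about 60% in these data, passing the limit was not always enough; inconclusive = inhibition over the cutoff but images rejected on review; inactive = inhibition not above the cutoff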
# GALR2 ag = GALR2 receptor agonists, primary screen, cell-based; 140,000 compounds, 0.48% hits; activation, %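 (tested at 5 µM)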; GALR2-expressing cells, agonist activation read-out;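 active = above mean plus 3 SD of all compounds, about 5% in these data, not always enough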;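 also: 0% = vehicle buffer wells and 100% = reference agonist at full effect; tested in CHO reporter cells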
# Target sequence (O43603 whole entry, looked up): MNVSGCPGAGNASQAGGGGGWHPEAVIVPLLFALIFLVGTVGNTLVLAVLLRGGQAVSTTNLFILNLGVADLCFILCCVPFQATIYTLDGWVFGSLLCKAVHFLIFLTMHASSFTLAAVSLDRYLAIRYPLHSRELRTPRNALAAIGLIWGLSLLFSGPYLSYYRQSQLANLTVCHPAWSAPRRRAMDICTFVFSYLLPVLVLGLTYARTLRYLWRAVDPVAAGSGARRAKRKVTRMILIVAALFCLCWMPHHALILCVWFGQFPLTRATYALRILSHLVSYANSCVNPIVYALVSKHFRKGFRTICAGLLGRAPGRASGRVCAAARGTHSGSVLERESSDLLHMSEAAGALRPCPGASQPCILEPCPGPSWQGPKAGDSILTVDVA
# HSV augment = enhancers of HSV replication in host cells, fold increase, host cell viability; HSV replication augmentation in cells; maximum fold increase; 220,000 compounds, 0.005% hits;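 active = peak rise of 1.5-fold or more in the series; inconclusive = self-fluorescent or not available for retest; tested in PC3 cells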;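 also: first round at 10 µM; read as green reporter fluorescence; hits show the peak of a series up to 25 µM; 1 = signal of infected wells without compound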
# RGS16-Gao HTS = modulators of RGS16 binding to Galphao, primary screen, biochemical, human proteins, multiplexed bead flow cytometry; Regulator of G-protein signaling 16 (Homo sapiens) + Guanine nucleotide-binding protein …; bead-based flow cytometry RGS16-Galphao binding, fluorescence; actives lie on both sides; binding response (% of control), % at 10 µM; 220,000 compounds, 0.38% hits; AID 1441, 2008;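 active = below 25% or above 175%, edge rows of some plates excepted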;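 also: Galphao activated by GDP with aluminum fluoride before binding; 100% = wells without compound and 0% = beads without RGS; some results beyond the cut were filed as inactive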
# Target sequence (O15492 whole entry, looked up): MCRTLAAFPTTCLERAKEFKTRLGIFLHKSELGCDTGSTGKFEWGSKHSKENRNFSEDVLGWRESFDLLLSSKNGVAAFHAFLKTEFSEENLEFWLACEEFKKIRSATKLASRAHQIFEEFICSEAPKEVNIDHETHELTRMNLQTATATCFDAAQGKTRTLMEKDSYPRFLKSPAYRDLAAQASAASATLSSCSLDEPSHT
# Target sequence (P09471 whole entry, looked up): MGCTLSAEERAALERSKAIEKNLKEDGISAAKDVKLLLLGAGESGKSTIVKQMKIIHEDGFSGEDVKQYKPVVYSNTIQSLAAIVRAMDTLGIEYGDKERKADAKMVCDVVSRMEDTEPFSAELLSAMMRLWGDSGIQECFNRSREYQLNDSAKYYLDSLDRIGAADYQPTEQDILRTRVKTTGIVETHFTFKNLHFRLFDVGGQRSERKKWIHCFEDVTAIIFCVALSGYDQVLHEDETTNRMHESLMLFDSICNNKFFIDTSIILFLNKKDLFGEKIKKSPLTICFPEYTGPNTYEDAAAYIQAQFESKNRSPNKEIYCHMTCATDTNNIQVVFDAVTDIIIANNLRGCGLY
# PKD1 inh = inhibitors of human PKD1 kinase, biochemical, fluorescence polarization; Serine/threonine-protein kinase D1 (Homo sapiens), Q15139; PKD1 kinase fluorescence polarization assay; inhibition, %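 (about 10 µM by stock and volumes)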; 200,000 compounds, 0.056% hits; AID 797, 2007;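 active = inhibition of 50% or more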;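 also: controls were vehicle for no effect and a reference inhibitor for full effect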
# Insulin prom inh cell count = second read-out of Insulin prom inh, no call of its own (marks repeat the call); normalized cell count, %; measured here: cell count, toxicity; reference of the scale not given here;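 cells exposed to compound for 48 h; stained nuclei by imaging scaled within each plate; lower means fewer cells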
# HSV augment primary fold = also measured in HSV augment; calls as there; fold increase; compound at 10 µM; measured here: primary screen fold increase 10 uM; tested in PC3 cells;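 GFP signal in the first replicate; 1 = infected wells without compound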
# Active calls of the source: *; i = inactive; ? = inconclusive; . = not tested or not shown; [ ] = remark or other dose.
SMILES,Insulin prom inh,Insulin prom inh cell count,GALR2 ag,HSV augment,HSV augment primary fold,RGS16-Gao HTS,PKD1 inh
CN(c1ccccc1)S(=O)(=O)c1cccc(NC(=O)Cc2c(F)cccc2Cl)c1,.,.,-0.9,i,0.95,117,-7
COc1ccc(COc2cc(-c3cccc(OC)c3)nc3ccc(NC(=O)c4cccnc4)cc23)cc1,15,107,0.5,i,0.66,105,0
c1ccn2cc(C34CC5CC(CC(C5)C3)C4)nc2c1,.,.,.,i,1.1,92,-2
Cc1ccc2[nH]c(=O)c(CN(Cc3ccc4c(c3)OCO4)Cc3nnnn3Cc3ccco3)cc2c1,-38,121,-2.7,i,1,96,-2
c1ccc(COc2ccc(Oc3nc(N4CCCCC4)nc(N4CCOCC4)n3)nn2)cc1,.,.,0.8,i,0.99,132,-4
Clc1ccc(-n2nnnc2SCc2cn3ccccc3n2)cc1,-11,109,-2.0,i,1.1,99,6
COc1ccc(NC(=O)Nc2nnc(-c3cccs3)s2)cc1,.,.,.,i,0.95,99,.
CCCn1c(N)c(C(=O)CSc2nc(C)cs2)c(=O)n(C)c1=O,33,76,-3.9,i,0.98,101,-3
COc1ccc(C2NC(=O)CS2)cc1 (configuration not stated),-169,69,-2.7,i,0.93,101,-10
O=C(NCc1ccccc1)C1CC(=O)N(c2ccc(OCC(=O)N3CCCC3)cc2)C1 (configuration not stated),-33,125,-1.1,i,0.95,55,-3
CC(=O)OC1c2c(ccc3ccc(=O)oc23)OC(C)(C)C1OC(=O)CC(C)C (configuration not stated),.,.,-0.4,.,.,.,15
O=C(CCC(=O)c1ccc(F)cc1)Nc1cccnc1,50,133,-2.3,i,0.97,100,6
CCOC(=O)C1(Cc2ccc(Cl)cc2)CCN(C(=O)CCc2cnccn2)CC1,.,.,.,i,1.1,107,-7
CCN1C(=O)CSc2ccc(C(=O)NC3CCCCC3)cc21,.,.,-1.6,i,1.1,96,-6
O=C(Nc1ccc(CN2CCS(=O)(=O)CC2)cc1)c1ccc(C(F)(F)F)cc1,.,.,.,i,0.97,109,.
CSc1nsc(NC(=O)Cc2ccccc2)n1,-103,202,-2.0,i,0.79,100,-1
CC(Sc1nnc(-c2ccco2)o1)C(=O)NCCC1=CCCCC1 (configuration not stated),0,48,.,i,1,113,-6
c1coc(CNc2ncnc3ccccc23)c1,.,.,-1.6,i,0.99,180,-11
COc1cccc(/C=N/NC(=O)C(=O)N/N=C/c2cccc(OC)c2O)c1O,.,.,.,i,0.63,83,5
Cc1csc(C(=O)NN)c1N(C)C,.,.,.,i,0.98,91,.
CC(c1nccs1)N(C)c1nc2nonc2nc1NC1CC1 (configuration not stated),.,.,.,i,1.1,84,-13
O=c1c2[nH]c3ccc(Br)cc3c2ncn1CCCn1ccnc1,79*,133*,-1.4,i,0.89,98,0
CCOc1ncccc1C(=O)Nc1ccc(Cl)cc1,29,92,1.6,i,0.91,59,-10
CCOc1ccccc1Nc1nnc(C)c(=O)[nH]1,64,107,-1.5,i,1,101,4
CSCCC1NC2(C(=O)Nc3ccc(Cl)cc32)[C@@H]2C(=O)N(C3CCCC3)C(=O)[C@H]12 (some centres not stated),.,.,-2.2,i,0.84,103,2
Oc1cc2c(cc1C(c1ccc(Br)cc1)N1CCCC1)OCO2 (configuration not stated),30,79,.,i,0.79,95,-2
COc1cc(C(=O)N2CCC(n3cnc4cc(F)ccc43)CC2)cc(OC)c1OC,.,.,-0.7,i,0.78,95,4
CC(C)(C)C(=O)OCc1nc(-c2ccc(F)cc2)cs1,.,.,.,i,0.93,96,.
COc1cnc(-c2ccccc2)[nH]c1=O,-31,97,.,.,.,132,-5
C=CCNc1nc(N)c(C(=C(C#N)C#N)c2ccc(Br)cc2)s1,.,.,3.4,i,0.78,50,3
CC(NCc1ccccc1)c1ccccc1O (configuration not stated),.,.,.,i,1.1,102,.
COc1ccc(CC(=O)OC(C)CN2CCCCC2)cc1 (configuration not stated),.,.,.,i,1.1,111,-2
On1cnnc1-c1ccccc1,.,.,-1.6,i,0.96,109,-5
CCCCCNc1nc(NCCCO)c(C#N)c2c1CN(C)CC2,-55,159,0.1,i,1.1,99,-4
Cc1cccc(NC(=S)N2CCn3cccc3C2c2cccnc2)c1 (configuration not stated),.,.,-1.9,.,.,90,9
N#Cc1c(-c2ccccc2F)cc(C2CC2)nc1SCC(=O)c1cccs1,.,.,-0.7,?,.,100,-7
COCCn1c(N)c(S(=O)(=O)c2cccs2)c2nc3ccccc3nc21,31,104,1.9,i,1.1,72,3
O=C(CC(C(=O)N1CCc2ccccc21)n1ccnc1)NCc1cccnc1 (configuration not stated),-23,54,-0.6,i,1.2,79,0
COc1ccc(N(Cc2cc3ccccc3[nH]c2=O)C(=O)C2CCCO2)cc1 (configuration not stated),.,.,-1.5,i,0.8,99,-3
CCCCCC(=O)NNC(=S)NC(=O)c1ccccc1[N+](=O)[O-],-50,142,.,i,1,103,0
CCN(CC)S(=O)(=O)c1ccc(Cl)c(C(=O)Oc2cccc(-c3cnc4ccccc4n3)c2)c1,-20,120,-1.4,i,0.95,93,4
Cc1ccc(-n2c(SCC(=O)Nc3ccc4c(c3)OCO4)nnc2-c2ccoc2C)cc1,23,141,-2.7,i,1,105,13
CCCOc1ccc(N2C(=O)CC(N(CCC)C(=O)CCC(=O)O)C2=O)cc1 (configuration not stated),.,.,0.3,i,0.93,108,1
COc1ccc(C(=O)NC(=O)Nc2ncccc2C)cc1,0,142,-1.4,i,0.97,2.9*,0
CC(C)(C)NC(=O)C1CCN(S(=O)(=O)c2cccc(C(F)(F)F)c2)CC1,.,.,.,i,0.92,104,-6
COc1ccc(CC(NC(C)=O)C(=O)NC2CCN(C(=O)c3ccc(OC)c(OC)c3)CC2)cc1OC (configuration not stated),.,.,.,i,0.89,108,3
COc1cc(NC(=O)c2csc3c2CCCC3)ncn1,.,.,-0.5,.,.,101,-7
Cc1c(/C=C/C(=O)c2ccc(C(C)C)cc2)cnn1C,-12,155,.,i,0.97,105,2
O=C(CSc1ccc(Cl)cc1)Nc1ccc(N2CCN(C(=O)c3ccco3)CC2)cc1,-8,62,0.1,i,0.84,113,-1
CC(=O)Oc1ccc2c(=O)c(Oc3ccccc3)coc2c1OC(C)=O,-11,119,-1.4,i,0.98,62,-5
CCN1CCN(C(=O)c2cc3c(-c4ccc(Cl)cc4)nn(C)c3s2)CC1,.,.,-0.2,i,0.65,98,-3
COc1ccc(NC(=S)N(CCCN2CCN(C)CC2)Cc2cccs2)cc1,13,64,-0.8,i,0.88,118,-1
CCN(CC)S(=O)(=O)c1ccc(NC(=O)C2CCCN(C(=O)c3ccc(Cl)cc3)C2)cc1 (configuration not stated),-37,144,0.0,i,0.84,104,-4
CC1CC(=O)Nc2ccccc2N1S(=O)(=O)c1ccc(C#N)cc1 (configuration not stated),.,.,.,i,1.3,97,.
CCC(=O)Nc1ccc(C(=O)OCC(=O)c2ccc(C)c([N+](=O)[O-])c2)cc1,10,122,-1.7,i,0.95,114,3
O=C(O)c1cccc(N2CCCCS2(=O)=O)c1,.,.,1.7,i,1.1,102,-2
COc1cccc2cc(C(C)N(CCCN3CCOCC3)C(=S)Nc3cc(C)ccc3C)oc12 (configuration not stated),-35,199,.,i,1,108,-7
CCOC(=O)c1sc(NC(=O)CSc2nc(C)cc(C)c2C#N)c(C#N)c1C,0,28,-1.6,i,1.1,94,-1
O=C(O/N=C(/c1ccccc1)c1ccncc1)c1ccccc1[N+](=O)[O-],.,.,.,i,0.97,108,2
Cc1ccc2cc(CN(Cc3ccc(F)cc3)Cc3nnnn3C3CCCC3)c(=O)[nH]c2c1,35,63,-0.5,i,0.79,104,-4
# (next part)
SMILES,Insulin prom inh,Insulin prom inh cell count,GALR2 ag,HSV augment,HSV augment primary fold,RGS16-Gao HTS,PKD1 inh
C=CCn1c(-c2ccccc2)ccc(C#N)c1=O,.,.,-0.6,i,0.91,98,-3
Cc1ccc(C(=O)Nc2c(C(=O)N3CCOCC3)cnn2-c2ccccc2)cc1,-3,156,-1.2,i,1,101,5
CN(c1ccccc1)c1ccc(/C=c2\s/c(=C(/C#N)C(=O)C(C)(C)C)n(Cc3ccco3)c2=O)cc1,-178,74,-0.4,?,.,551*[activator],-23
Cc1ccc(Nc2ncc(C(=O)NCCCN3CCN(C)CC3)c3ccccc23)cc1Cl,.,.,.,i,0.85,100,-4
COc1ccccc1-n1cnc2c(c1=O)c1nc3ccccc3nc1n2-c1ccc(C)c(C)c1,.,.,0.2,i,1.1,100,2
CC1Cc2ccccc2N1C1=NS(=O)(=O)c2ccccc21 (configuration not stated),-9,178,-0.1,i,0.61,104,0
COc1cccc(NC(=O)N[C@@H](Cc2ccccc2)C(=O)O)c1,17,70,-2.6,i,1.1,97,3
N/C(=N\NC(=O)c1cccc(F)c1)c1cc2ccccc2oc1=O,.,.,.,i,1,100,.
Fc1cccc(Nc2nc3ccccc3n3nnnc23)c1,.,.,-1.8,i,1,94,-8
O=C(CNC(=O)c1cc2c(s1)CCC2)Nc1ccccc1Br,5,136,-4.4,i,1.1,82,-7
COc1ccccc1NC(=O)c1ccc(NC(=O)COC(=O)C2CCCO2)cc1 (configuration not stated),.,.,.,i,1,95,6
CCCOc1ccc(C(=O)CCN2CCCCC2)cc1,.,.,0.0,i,1,93,-6
C/C(=N\NC(=O)c1c(C)nc2ccccn12)c1ccc(N2CCOCC2)cc1,.,.,.,i,1,97,-1
CCc1c(C)c(C#N)c2nc3ccccc3n2c1NCC1CCCO1 (configuration not stated),-79,73,-1.4,i,0.94,112,4
CCc1ccc(NC(=O)CSc2nc3c(c(=O)n(C)c(=O)n3C)n2C)cc1,-66,89,-0.3,.,.,85,-7
CS(=O)(=O)N1CCN(c2ccccc2NC(=O)c2ccc(-c3ccc(Cl)cc3Cl)o2)CC1,-33,75,-0.5,i,1.1,97,-14
CC1=CC2(C#N)C3(N=C(N)C2(C#N)C(c2ccccc2)N1)OCCO3 (configuration not stated),-59,144,-2.9,i,1,96,-7
CN(C)c1cc(-c2ccc(Cl)cc2)oc(=O)c1Cl,.,.,.,i,0.88,98,.
O=C(/C=C/c1ccc2c(c1)OCCCO2)c1ccc2ccccc2c1O,-30,109,-1.5,i,0.93,93,5
CCN(CC)S(=O)(=O)c1ccc(NC2c3ccccc3C(=O)N2Cc2ccc3c(c2)OCO3)cc1 (configuration not stated),.,.,-2.3,i,0.92,111,-3
O=C1c2ccccc2C(=O)N1c1cccc(-c2nc3ccccc3o2)c1,40,67,-1.3,i,1,101,-1
COC(=O)CN1C(=O)C(O)(CC(=O)c2ccc(C)cc2)c2cc(Br)ccc21 (configuration not stated),.,.,-1.8,i,0.96,104,-10
COCCNC(C)C(=O)Nc1ccc(Br)cc1 (configuration not stated),.,.,0.2,i,1,108,-11
COc1ccc(NC(=O)CN(c2ccccc2)S(=O)(=O)c2ccccc2)c(OC)c1,.,.,.,i,0.99,111,.
COc1cccc(Oc2coc3c(CN4CCOCC4)c(O)ccc3c2=O)c1,-7,167,-2.6,i,1,100,-4
CCC(=O)Nc1ccc(N2CCOCC2)c(S(=O)(=O)Nc2ccc(OC)cc2)c1,.,.,.,i,1.1,102,-2

# Six successive records already listed, quoted:
SMILES,Insulin prom inh,Insulin prom inh cell count,GALR2 ag,HSV augment,HSV augment primary fold,RGS16-Gao HTS,PKD1 inh
CCN(CC)S(=O)(=O)c1ccc(NC2c3ccccc3C(=O)N2Cc2ccc3c(c2)OCO3)cc1 (configuration not stated),.,.,-2.3,i,0.92,111,-3
O=C1c2ccccc2C(=O)N1c1cccc(-c2nc3ccccc3o2)c1,40,67,-1.3,i,1,101,-1
COC(=O)CN1C(=O)C(O)(CC(=O)c2ccc(C)cc2)c2cc(Br)ccc21 (configuration not stated),.,.,-1.8,i,0.96,104,-10
COCCNC(C)C(=O)Nc1ccc(Br)cc1 (configuration not stated),.,.,0.2,i,1,108,-11
COc1ccc(NC(=O)CN(c2ccccc2)S(=O)(=O)c2ccccc2)c(OC)c1,.,.,.,i,0.99,111,.
COc1cccc(Oc2coc3c(CN4CCOCC4)c(O)ccc3c2=O)c1,-7,167,-2.6,i,1,100,-4

# Source: PubChem BioAssay (several laboratories)
